# eIF4H inh: inhibitors of RNA binding by human eIF4H; Q15056; eIF4H fluorescence polarization binding assay; inhibition, % at 35 µM; hit rate 0.94% among 290,000; AID 2012;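 active = 50% or more with normal probe brightness, or confirmed in later tests; about a fifth of its hits are not listed in these tables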;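 note: calls also rest on retests at 20 µM and on dose response follow-up; 0% = protein and probe with vehicle and 100% = probe without protein; strong numbers were not always called active; many hits fall short of the cut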
# UUG fidelity: modulators of start codon recognition fidelity in yeast; hit rate 0.13% among 350,000; S. cerevisiae UUG-firefly luciferase reporter, luminescence/redox ratio; activity score, % at 18.7 µM;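 active = replicate mean at a twofold rise or more, about +100% in these data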;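 note: firefly luciferase made from a UUG start codon reports start codon fidelity; reporter light over untreated wells divided by growth signal over untreated wells; some hits fall short of that in this replicate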
# CSC inhib: blocks cancer stem cells; hit rate 1.1% among 300,000; cancer stem cell-like cells viability, luminescence; inhibition, % at 7.5 µM;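 active = mean at 75% or more and at least half the replicates too; tested in HMLE shEcad cells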;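 note: 0% = median of negative and 100% = median of positive control wells; the first replicate is given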
# PABP FP inh: blocks human PABP binding to poly(A) RNA | P11940 | fluorescence polarization | inhibition, % at 35 µM | hit rate 1% among 290,000 | AID 2014;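 active = 50% or more with normal probe brightness, or confirmed in later tests; about a fifth of its hits are not listed in these tables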;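 note: calls also rest on retests at 20 µM and on dose response follow-up; controls were probe without protein and protein plus probe with vehicle; some compounds called inactive have numbers as strong as hits; many hits fall short of the cut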
# Target sequence (P11940 whole entry, looked up): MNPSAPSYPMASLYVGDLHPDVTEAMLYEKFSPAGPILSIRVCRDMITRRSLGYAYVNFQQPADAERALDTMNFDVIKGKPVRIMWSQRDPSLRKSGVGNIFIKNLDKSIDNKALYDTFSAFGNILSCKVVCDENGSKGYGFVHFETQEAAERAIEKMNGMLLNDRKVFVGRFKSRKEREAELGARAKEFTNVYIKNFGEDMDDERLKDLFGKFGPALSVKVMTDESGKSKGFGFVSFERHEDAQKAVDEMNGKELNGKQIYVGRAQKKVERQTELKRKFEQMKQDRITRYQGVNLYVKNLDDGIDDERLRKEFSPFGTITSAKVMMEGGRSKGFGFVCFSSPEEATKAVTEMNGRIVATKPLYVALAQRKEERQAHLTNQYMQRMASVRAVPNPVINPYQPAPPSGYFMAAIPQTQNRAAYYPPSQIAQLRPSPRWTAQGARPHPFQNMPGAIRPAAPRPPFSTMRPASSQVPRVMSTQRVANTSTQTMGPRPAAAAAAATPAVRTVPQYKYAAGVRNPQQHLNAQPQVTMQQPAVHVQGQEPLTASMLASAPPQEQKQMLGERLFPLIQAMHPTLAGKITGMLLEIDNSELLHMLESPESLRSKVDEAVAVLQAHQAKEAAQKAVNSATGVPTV
# MT1-MMP act inh: MT1-MMP (human) activation inhibition; HT1080 RFP-PRO-GFP cells, GFP/RFP ratio fluorescence, overnight; percent of plate control window, DMSO zero; P50281; GFP/RFP ratio change, % at 20 µM; AID 651647; hit rate 0.061% among 360,000;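 active = GFP/RFP ratio change of at least 30% with cell ATP level not reduced by more than half and red fluorescence within 50% of control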; note: strong numbers were not always called active
#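 Assay system – RFP-PRO-GFP reporter HT1080 cells · Compound dosing – single dose of 20 µM compound, 1% DMSO final · Incubation – overnight compound exposure at 37 °C · Measure – GFP/RFP fluorescence ratio · Benchmarks – DMSO wells and RFP-L50D-GFP cells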
# Rce1 inhib: inhibitors of yeast Ras-converting enzyme; AID 2563; yeast membranes, quenched prenylated peptide cleavage fluorescence; hit rate 0.27% among 290,000; calls only; Q03530;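 active = fall in fluorescence gain of 50% or more versus controls, with final raw signal at or below 3038400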;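 note: plate controls were neutral control wells for no effect and wells lacking membranes for full effect; tested at 10 µM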
# Env fusion inh: HIV envelope-mediated fusion inhibition; HeLa-JRFL Env/CEM21 cell fusion, luciferase; inhibition, % at 12.3 µM; hit rate 1.1% among 360,000; AID 651610;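 active = mean replicate inhibition score of at least 50 and every replicate individually at or above 50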;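 note: 0% = plate neutral controls and 100% = maraviroc near 300 nM; one replicate is shown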
# MT1-MMP act inh RFP: second read-out of MT1-MMP act inh, no call of its own (marks repeat the call); RFP signal change, %; measured here: RFP expression control read;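 0 = vehicle wells; hits needed this value within 50% of zero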
# The depositor's hits bear a star; i = inactive; x = not tested or not shown; & = joins results of further samples.
SMILES,eIF4H inh,UUG fidelity,CSC inhib,PABP FP inh,MT1-MMP act inh,MT1-MMP act inh RFP,Rce1 inhib,Env fusion inh
Cc1[nH]c(=O)[nH]c(=O)c1S(=O)(=O)N1CCCC(C(=O)NCc2ccco2)C1 (configuration not stated),3.2,-10.3,-6.0,-5.2,3.3,3.6,i,x
CCOC(=O)C1(C)CCCN1C(=O)c1ccccc1OC (configuration not stated),x,-14.5,x,x,-0.4,1.9,x,12.6
CN(C(=O)CC(=O)Nc1ccc(Cl)c(Cl)c1)c1ccccc1,-4.1,x,-9.2,-0.6,2.7,3.7,i,0.8
Cc1cc(NC(=O)CSc2nnc(CNC(=O)c3c(F)cccc3F)o2)no1,-3.3,-3.5,7.5,-5.2,-0.3,3.4,i,4.8
CCN(CC)c1ccc(NC(=O)CN2CCN(c3ccccc3F)CC2)cc1,26.7,-41.6,1.3,-3.0,2.8,2.2,i,x
CCOc1ccc(S(=O)(=O)N2CCC(C(=O)NCCc3ccc(S(N)(=O)=O)cc3)CC2)cc1,-4.6,-1.0,-13.4,-5.1,8.7,4.4,i,11.0
CCCCN(CC)S(=O)(=O)c1c(C)[nH]c(=O)[nH]c1=O,5.4,-18.4,1.1,-6.5,12.3,5.9,i,-21.4
N=C1C(c2nc3ccccc3s2)=C(O)CN1NC(=O)c1ccc([N+](=O)[O-])cc1,5.8,x,x,7.9,-0.3,2.4,x,-32.5
C[C@H](N)c1nnc(SCC(N)=O)o1,-1.4,x,-3.0,8.5,2.5,3.1,i,-24.5
O=C(c1cc(COc2ccc(F)cc2Cl)on1)N(Cc1ccncc1)CC1CCCO1 (configuration not stated),2.4,x,-8.7,-5.9,-4.1,-4.5,i,16.0
CCCCn1nnnc1NCc1cccc(OC)c1OC,2.2,-10.3,1.1,2.1,-3.2,0.4,i,x
COC(=O)C1(C)NC(c2ccc(C)cc2)C2C(=O)N(c3ccc(F)cc3)C(=O)C21 (configuration not stated),-7.0,-30.2,-31.5,-5.9,5.8,1.2,i,5.5
Cc1nnc2ccc(-c3ccc(NS(C)(=O)=O)cc3)nn12,-3.9,-6.8,9.8,0.7,5.1,5.0,i,-4.0
Cc1ccc(S(=O)(=O)N2CCOCC2)cc1C(=O)Nc1ccc(C(N)=O)cc1,-4.7,x,-12.9,4.1,-2.9,-2.5,i,-4.2
O=C(COc1ccc(Cl)c2cccnc12)N1CCOCC1,x,-15.6,x,x,3.7,7.9,x,-0.2
COc1cccc(NC(=O)CSc2cccc[n+]2[O-])c1,x,-5.5,1.5,x,3.9,0.9,x,-22.0
Cc1ccc(C(=O)N2CCN(c3ccccn3)CC2)cc1C,-15.4,-17.7,-5.2,2.7,1.6,0.3,x,-8.8
O=C(CCNC(=O)c1ccc(Cl)cc1)NC1CCCc2ccccc21 (configuration not stated),x,-15.8,27.0,x,4.8,6.3,x,4.2
CCC(C(=O)Nc1ccccc1OC)n1c(C(=O)OC)cc2ccsc21 (configuration not stated),-5.7,4.5,x,-7.4,-11.6,0.0,i,x
Cc1cccc(Cn2c(=O)n(CCCC(=O)NCc3ccco3)c(=O)c3ccccc32)c1,-6.2,-21.7,35.6,-5.9,-6.1,-14.0,i,x

# Retrieved by compound from the entries so far, 2 records:
SMILES,eIF4H inh,UUG fidelity,CSC inhib,PABP FP inh,MT1-MMP act inh,MT1-MMP act inh RFP,Rce1 inhib,Env fusion inh
N=C1C(c2nc3ccccc3s2)=C(O)CN1NC(=O)c1ccc([N+](=O)[O-])cc1,5.8,x,x,7.9,-0.3,2.4,x,-32.5
Cc1ccc(S(=O)(=O)N2CCOCC2)cc1C(=O)Nc1ccc(C(N)=O)cc1,-4.7,x,-12.9,4.1,-2.9,-2.5,i,-4.2

# 5 entries from above, arranged by the number in MT1-MMP act inh, descending.
compound	UUG fidelity	MT1-MMP act inh	MT1-MMP act inh RFP	Rce1 inhib	Env fusion inh
CCOc1ccc(S(=O)(=O)N2CCC(C(=O)NCCc3ccc(S(N)(=O)=O)cc3)CC2)cc1	-1.0	8.7	4.4	i	11.0
COc1cccc(NC(=O)CSc2cccc[n+]2[O-])c1	-5.5	3.9	0.9	x	-22.0
O=C(COc1ccc(Cl)c2cccnc12)N1CCOCC1	-15.6	3.7	7.9	x	-0.2
CN(C(=O)CC(=O)Nc1ccc(Cl)c(Cl)c1)c1ccccc1	x	2.7	3.7	i	0.8
CCOC(=O)C1(C)CCCN1C(=O)c1ccccc1OC (configuration not stated)	-14.5	-0.4	1.9	x	12.6

# Next structures follow:
SMILES,eIF4H inh,UUG fidelity,CSC inhib,PABP FP inh,MT1-MMP act inh,MT1-MMP act inh RFP,Rce1 inhib,Env fusion inh
CCOc1cccc(-c2cnc3cccnn23)c1,x,-20.6,x,x,-9.1,-4.5,x,-28.1
O=C(COC(=O)Cc1ccc(F)cc1)Nc1ccc2[nH]c(=O)[nH]c2c1,x,x,-2.8,x,6.3,3.0,i,-8.1
CC(=O)Nc1ccc(-c2csc(Nc3ccccn3)n2)cc1,-5.6,-25.1,-7.1,1.9,-3.4,-26.0,i,-114.8
CCn1c(SCC(=O)Nc2c(C)n(C)n(-c3ccccc3)c2=O)nnc1-c1cccc(C)c1,-4.8,-18.6,-1.1,-2.3,4.9,1.0,i,-17.6
Nc1nc(SCC(=O)N2CCc3ccccc32)[nH]c(=O)c1-c1ccccc1,4.2,-6.7,-8.1,8.0,5.6,4.4,i,x
O=C(C[C@H]1CC[C@H]2[C@@H](COC[C@H](O)CN2C(=O)c2ccccn2)O1)N1CCN(c2ccccc2)CC1,x,2.2,x,x,3.2,5.3,x,3.7
COc1ccc(-c2c(C)c3ccc(O)cc3oc2=O)cc1OC,-17.0,-2.5,-6.4,5.3,-1.1,-0.9,i,-2.5
O=C(NC1CCCN(Cc2ccc(Cl)cc2)C1)c1ccoc1 (configuration not stated),-1.1,-37.9,-13.6,-4.6,-0.6,2.4,i,-140.8
O=C(NCCN1CCOCC1)c1csc2c1CCCC2,-4.4,-15.1,2.4,-5.9,0.5,-2.1,i,-13.4
Cn1cccc1C(=O)N1CCN(c2cccc(C(F)(F)F)c2)CC1,-5.0,11.9,-9.5,3.7,0.8,2.1,i,-25.9
COc1ccc(NS(=O)(=O)c2ccc3c(c2)CCO3)cc1,-1.7,-9.7,-11.4,-4.1,1.3,-4.8,i,8.9
CCNc1ccc(C(=O)Nc2ccc3nc(C)sc3c2)cc1[N+](=O)[O-],9.3,-5.4,-1.6,-11.3,10.5,1.1,i,x
CCOC(=O)Cc1nnc(NC(=O)CSc2ccc(C)cc2)s1,-0.1,-13.0,-3.0,-1.6,-8.3,-0.3,i,-49.6
CCOc1ccccc1/C=N/Nc1ccc(Cl)nn1,-1.9,-20.0,-12.7,9.6,0.8,0.5,i,-26.0
CCc1nn(C(C)C(=O)N2CCc3ccccc3C2)c(=O)c2cc3occc3n12 (configuration not stated),18.5,23.5,-22.5,11.2,4.1,2.8,i,x
CN(CC(=O)Nc1ccccc1C(F)(F)F)C(=O)CSCc1ccccc1,x,-1.6,-14.3,x,1.1,1.0,i,1.2
CC(=O)O[C@]1(C(C)=O)CC[C@H]2[C@@H]3C[C@H](C)C4=CC(=O)CC[C@]4(C)[C@H]3CC[C@@]21C,-0.4,11.5&4.7,3.4&6.8,35.1,-4.5&1.1,-1.0&-3.4,i,i
CC(C)NS(=O)(=O)c1ccc(OCC(=O)NCCC2=CCCCC2)cc1,-14.3,-15.0,-7.6,-14.4,1.7,-2.1,i,-2.7
CN1CCN(C(=O)C2Cc3c(-c4ccc5c(c4)OCO5)ccnc3O2)CC1 (configuration not stated),x,-10.8,x,x,2.3,2.4,x,-28.8
C/C(CC(=O)Nc1cc(C)ccn1)=N\NC(=O)c1ccc(C)cc1,-0.6,x,x,-2.0,6.8,-5.1,i,-2.8

# Only eIF4H inh, MT1-MMP act inh RFP and Env fusion inh, for some of the entries so far:
SMILES	eIF4H inh	MT1-MMP act inh RFP	Env fusion inh
CCn1c(SCC(=O)Nc2c(C)n(C)n(-c3ccccc3)c2=O)nnc1-c1cccc(C)c1	-4.8	1.0	-17.6
COc1ccc(-c2c(C)c3ccc(O)cc3oc2=O)cc1OC	-17.0	-0.9	-2.5

# Continued.
SMILES,eIF4H inh,UUG fidelity,CSC inhib,PABP FP inh,MT1-MMP act inh,MT1-MMP act inh RFP,Rce1 inhib,Env fusion inh
CN(Cc1ccccc1)C(=O)CSc1cc(=O)n(C)c2ccccc12,-6.7,x,1.1,-12.0,2.8,6.7,i,-1.7
COc1cccc(OCC(=O)Nc2ccc(OC)c(OC)c2)c1,-4.9,5.9,-8.3,-6.6,-21.9,-15.5,i,-33.6
COc1cccc(-c2ccc(C3=CC(=O)CC(C)(C)C3=O)cc2)c1OC,x,16.4,x,x,2.2,0.6,x,10.6
C/C(=N\NC(=S)NC(C)C)c1ccc(Cl)s1,10.6,-25.0,-3.7,27.6,-1.2,-2.6,i,-5.7
O=C(/C=C/c1ccccc1)OCCCN=C1NS(=O)(=O)c2ccccc21,-4.3,x,-7.3,1.7,1.5,0.8,i,-3.4
CC(=O)Nc1c2c(nn1-c1ccccc1C)CS(=O)(=O)C2,-5.0,-19.4,x,2.8,-4.7,3.3,i,-41.8
N#C/C(=C(\O)C(F)(F)F)c1nnc2n1CCCCC2,-10.0,-18.9,-5.9,4.4,-0.8,2.8,i,-6.6
NC(=O)CSc1nnc2sc3ccccc3n12,-6.3,x,8.3,-7.2,3.5,7.3,i,x
COCCn1c(=S)[nH]c2cc(C(=O)N3CCN(c4ccc(F)cc4)CC3)ccc2c1=O,-0.6,-19.2,26.4,-6.0,3.8,-1.2,i,2.0
COc1cc(NS(=O)(=O)c2ccc(NC(=O)/C=C/c3cccc([N+](=O)[O-])c3)cc2)ncn1,8.0,x,-7.0,3.1,3.9,2.0,i,21.0
Oc1ccccc1C1=NCCNC(C(F)(F)F)=C1,46.9,x,-11.2,-7.2,-1.2,2.7,i,-3.1
O=C(NC1CCC(O)CC1)c1ccc(-c2ccc(Cl)cc2)o1 (configuration not stated),x,x,-9.5,x,6.6,0.6,i,-71.1
COc1cc(OC)c(NC(=O)c2ccccc2F)cc1Cl,6.7,-14.5,-10.2,4.6,-6.4,4.6,i,1.0
CC(C)OC(=O)CSc1nc(-c2ccc(F)cc2)cc(C(F)(F)F)n1,0.5,-0.1,-11.1,9.7,-2.8,-1.3,i,18.9
Cc1cccc(-n2ncc3c(N4CCOCC4)ncnc32)c1,9.1,-75.8,8.6,4.0,-3.4,3.3,i,-18.0
O=C(NN=Cc1ccc(F)cc1)c1cccc(S(=O)(=O)N2CCCC2)c1,x,-12.5,8.7,x,3.1,1.2,x,-8.1
Cc1ccc(CSCC(=O)N2CCOCC2)cc1,-18.9,-4.8,-2.4,5.0,-1.9,3.0,i,x

# Source: PubChem BioAssay
